Screening data from PubChem BioAssay.
SARS PLP yeast – blocks SARS-CoV papain-like protease in a yeast assay | S. cerevisiae expressing SARS-CoV PLpro, growth rescue; control for the full effect not named in the record | hit rate 0.19% among 330,000 | Potency, µM (highest dose often 32.9 µM), without a hit: top-dose activity, positive = growth rescue; active means well fitted rising curve with a large enough effect; inconclusive means small, poorly fitted or top-dose-only effect; inactive means no such curve, though single readings can be large or run the other way; also: 0% is about no effect; nearly all actives have a fitted effect of over 55% in size; growth read by luminescence after 48 h
Cruzain inh Det – inhibitors of Trypanosoma cruzi cruzain with detergent | P25779 | purified cruzain, Z-FR-AMC fluorescence, 0.01% Triton | Potency, µM, for inactives: max response, negative = inhibition, actives largely listed as inhibitors | hit rate 0.43% among 200,000;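 also: plate controls were neutral wells for no effect and buffer without enzyme for full effect; nearly all actives have a fitted effect of over 40% in size; top concentration of the series not given in the record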
Target sequence (P25779 123-467 limits assumed): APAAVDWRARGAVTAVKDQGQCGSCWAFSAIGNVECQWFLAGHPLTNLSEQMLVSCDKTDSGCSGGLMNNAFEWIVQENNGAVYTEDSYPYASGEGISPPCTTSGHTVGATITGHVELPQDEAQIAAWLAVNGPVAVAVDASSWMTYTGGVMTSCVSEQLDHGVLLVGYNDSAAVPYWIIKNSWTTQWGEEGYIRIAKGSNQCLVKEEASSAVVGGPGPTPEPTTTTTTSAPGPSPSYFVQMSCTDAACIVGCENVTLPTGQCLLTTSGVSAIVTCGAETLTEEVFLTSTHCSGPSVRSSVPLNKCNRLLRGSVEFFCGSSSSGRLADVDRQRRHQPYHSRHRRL
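Read-out: AMC fluorescence (360 nm excitation, 450 nm emission), four reads over 2 min, first-to-third difference used. Conditions: cruzain 1.5 nM, Z-FR-AMC 2 uM, pH 5.5 acetate, 5 mM DTT, 0.01% Triton X-100.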
LASV entry inh – inhibitors of Lassa virus binding or cell entry; AID 540256; Lassa virus pseudotype entry inhibition, cell reporter; control for the full effect not named in the record; Potency, µM (titrated, usually from 37.9 µM), inactives show at the highest dose activity change, negative = inhibition, most hits filed as inhibitors; hit rate 1.2% among 300,000; active means well fitted inhibition curve with a large enough effect; inconclusive means small, poorly fitted or top-dose-only effect, or effect the other way; inactive means flat fitted curve, though single readings scatter; tested in HEK293 cells; also: % is scaled to controls: 0 for no effect and ±100 for the full control effect; nearly all actives have a fitted effect of over 50% in size; luciferase read-out
NS1 function inh – influenza NS1 inhibition | S. cerevisiae slowed by influenza A NS1, growth recovery by OD600 | hit rate 0.4% among 270,000 | Potency, µM (top dose mostly 46.1 µM), without a hit: at the highest dose activity, positive = more growth; active means well fitted rising curve with a large enough effect; inconclusive means small, poorly fitted or top-dose-only effect; inactive means no such curve, though single readings can be large or run the other way; also: nearly all actives have a fitted effect of over 50% in size
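S. cerevisiae expressing influenza A NS1, grown in glucose, washed, then diluted 1:100 into pH 6.0 -URA galactose medium with 23 nl compound. Growth recovery read as OD600; NS1-free strain serves as control.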
StopGo reporter – FMDV 2A StopGo reporter, luciferase signal; human cells with a luciferase reporter of 2A StopGo recoding; control for the full effect not named in the record; Potency, µM (series often up to 57.9 µM), inactives show at the top dose signal change, negative = less light; hit rate 1.2% among 410,000; AID 1159524; active = well fitted falling curve with a large enough effect; inconclusive = small, poorly fitted or top-dose-only effect; inactive = no such curve, though single readings can be large or run the other way; tested in HEK293T cells; also: % is scaled to controls: 0 for no effect and ±100 for the full control effect; nearly all actives have a fitted effect of over 45% in size; luciferase light after 4 h
RE007 growth inh – less growth of the S. pombe RE007 Vpr strain; S. pombe RE007 Vpr strain, BacTiter-Glo ATP luminescence, 24 h; control for the full effect not named in the record; Potency, µM (titrated, usually from 92.2 µM), for inactives: top-dose activity change, negative = less growth; hit rate 0.21% among 360,000; AID 651644; active = well fitted falling curve with a large enough effect; inconclusive = small, poorly fitted or top-dose-only effect; inactive = no such curve, though single readings can be large or run the other way;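 also: % is scaled to controls: 0 for no effect and ±100 for the full control effect; nearly all actives have a fitted effect of over 50% in size; the assay follows cell death caused by Vpr and the record does not say whether a fall means rescue or toxicity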
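Fission yeast RE007 carrying one integrated HIV-1 vpr copy, seeded at OD 0.01 in PMG+AL medium with 23 nL pinned compound. Grown 24 h at 30 degrees; viability read by BacTiter-Glo luminescence after 5 min.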
Marburg entry inh – blocks Marburg virus binding to or entry into cells. Potency, µM (titrated, usually from 37.8 µM), for the others: at the top dose activity change, negative = inhibition, usual class: inhibitors. hit rate 1.8% among 300,000. Marburg virus pseudotyped entry inhibition, cell reporter; control for the full effect not named in the record; about a third of the inactives were read at about 46 µM. AID 540276; active = well fitted inhibition curve with a large enough effect; inconclusive = small, poorly fitted or top-dose-only effect, or effect the other way; inactive = flat fitted curve, though single readings scatter; tested in HEK293 cells; about a fifth of its hits are not listed in these tables; also: % is scaled to controls: 0 for no effect and ±100 for the full control effect; luciferase read-out
Cruzain inh noDet – inhibitors of Trypanosoma cruzi cruzain without detergent | purified cruzain, Z-FR-AMC fluorescence, no detergent | Potency, µM, for inactives: max response, negative = inhibition, usual class: inhibitors | hit rate 2.3% among 200,000;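 also: plate controls were enzyme without inhibitor for no effect and buffer without enzyme for full effect; nearly all actives have a fitted effect of over 40% in size; top concentration of the series not given in the record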
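Detergent-free condition (0.00005% Triton X-100) in acetate buffer pH 5.5 with DTT. 1.5 nM enzyme and compound were pre-mixed 15 min, then 2 uM Z-FR-AMC substrate added; reaction progress from fluorescence change between first and third reads (60 s).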
* = called active by the depositor; ? = inconclusive; . = not tested or not shown; [ ] = another dose, or the depositor's remark. Unless noted, calls follow the shape of the dose curve; as a rule, active = well fitted curve in the direction sought with a large enough effect; inconclusive = small, poorly fitted or top-dose-only effect, or another doubt; inactive = no such curve, though single readings can be large; an effect the other way counts as inactive or inconclusive. Potency is read from the fitted curve at half-maximal effect.

SMILES	SARS PLP yeast	Cruzain inh Det	LASV entry inh	NS1 function inh	StopGo reporter	RE007 growth inh	Marburg entry inh	Cruzain inh noDet
Cc1nn(CCC(=O)NNC(=S)Nc2ccc(Cl)cc2)c(C)c1[N+](=O)[O-]	-8%	-1.6%	?	12%	-16%	-2%	3%	-11%
COc1ccc(-c2c[nH]c(=O)[nH]c2=O)cc1OC	1%	.	-1%	4%	12%	-9%	2%[14.2 µM]	.
CCN(CC)c1ccc2c(Nc3ccccc3)c(C=O)c(=O)oc2c1	2%	.	.	7%	-3%	16%	.	.
OC(COc1ccc(CNCCc2ccccc2F)cc1)CN1CCCCC1 (stereo not drawn)	1%	.	?	2%	-10%	-15%	2.3µM*	.
COc1ccc(CN2CCN(Cc3ccco3)CC2)c(OC)c1	-1%	.	0%	?	-2%	2%	-16%	.
CC(C)Oc1ccc(C(=O)Nc2cccc(S(=O)(=O)N3CCCC3)c2)cc1	3%	.	?	.	-6%	-9%	?	.
COc1ccccc1/C=C/C1(C(=O)NC2CCCC2)CC(=O)N1c1ccc(C)cc1 (stereo not drawn)	1%	-5.4%	-28%	2%	-21%	14%	?	6%
CCOC(=O)c1cc2c(=O)n3ccccc3nc2n(C(C)C)c1=NC(=O)c1ccncc1	2%	-14%	0%	-7%	-25%	-22%	?	4%
CC1CCN(C(=O)CSCC(=O)Nc2nc(-c3cccs3)cs2)CC1	-28%	-7.5%	.	-27%	-16%	-1%	.	-18%
O=C(NCCOc1ccccc1)c1ccccc1SCC(=O)N1CCCC1	-1%	.	4%	.	-1%	2%	-9%	.
Cc1cc(C)c2cc(C(=O)N3CCc4ccccc4C3)[nH]c2c1	-6%	.	-21%	-8%	31%[activator]	-13%	-21%	.
Cc1ccc(-c2noc(CCC(=O)Nc3ccc(C)cn3)n2)cc1	3%	0.5%	-3%	3%	-3%	15%	0%	25µM*
Cc1ccc(S(=O)(=O)Nc2cc(C(=O)NCCN(C)C)ccc2N2CCCCC2)cc1	22%	-2.8%	?	-10%	3%	13%	?	-3%
COCc1cc(SC2CCCCC2)nc(C)n1	0%	.	.	1%	0%	10%	.	.
COc1cc(C(=O)NCc2nnc(SCC(=O)Nc3ccc4c(c3)OCO4)o2)cc(OC)c1OC	5%	.	1%	.	3%	5%	-1%[46.1 µM]	.
COc1cc(CNCc2ccco2)cc(OC)c1O	-5%	.	5%[46.1 µM]	18%	-7%	-26%	-13%[46.1 µM]	.
Cc1ccccc1CN1CCN(S(=O)(=O)c2ccc(F)cc2)CC1	1%	-0.6%	?	-8%	-28%	6%	-23%[46.1 µM]	1%
Cc1ccc(NC(=O)Cc2nc(COC(=O)Cc3cccc(C(F)(F)F)c3)cs2)cc1	-1%	.	6%	.	45%[activator]	-3%	8%	.
COc1ccccc1CNc1nccn(-c2ccccc2)c1=O	.	-14%	28%[46.1 µM]	.	27%	.	.	-22%
Cc1ccc(C(=O)NN(C)c2nc3ccccc3nc2C(F)(F)F)cc1	-2%	0.4%	?	2%	-13%	5%	?	-27%
CN1/C(=C\C(=S)NC(=O)c2ccccc2Cl)C(C)(C)c2ccccc21	?	25µM*	6%	-3%	-14%	0%	?	32µM*
COc1ccc(N2CCN(C(=O)c3ccc(OCc4c(C)noc4C)c(OC)c3)CC2)cc1	1%	3.5%	-7%	3%	-17%	-4%	?	?
O=C(CN(C(=O)Cn1nnc(-c2ccc(F)cc2)n1)c1cccc(F)c1)NC1CCCC1	4%	.	2%[46.1 µM]	-7%	23%	-11%	?	.
CN1CCc2nc3sc(C(=O)NC(C)(C)C)c(N)c3cc2C1	0%	5.0%	?	7%	9%	-8%	22%	1%
Nc1nonc1-c1nc2ccccc2n1CC(=O)N1CCCCC1	-2%	-3.5%	7%	4%	-14%	8%	-1%	-2%
SMILES	SARS PLP yeast	Cruzain inh Det	LASV entry inh	NS1 function inh	StopGo reporter	RE007 growth inh	Marburg entry inh	Cruzain inh noDet
CN(C)c1ccc(CNc2ncnc3sccc23)cc1	-12%	.	3.5µM*	-24%	?	-10%	?	.
COc1ccccc1OCc1nnc(SCC(N)=O)n1-c1ccccc1	-3%	.	.	4%	-9%	-6%	.	.
Cc1ccc(CN(CC(=O)NCCc2ccccc2)C(=O)c2csnn2)cc1	-1%	.	-21%[46.1 µM]	0%	15%	2%	-19%[46.1 µM]	.
COc1ccccc1NC(=O)CSc1nnc(COc2ccc(Cl)cc2)o1	-1%	.	17%	0%	0%	9%	?	.
CC(C)CN(C(=O)COC(=O)c1cncc(Br)c1)c1c(N)n(Cc2ccccc2)c(=O)[nH]c1=O	9%	.	?	-13%	-3%	4%	-1%	.
CC(=O)Nc1cccc(NC(=O)C2CCCN2C(=O)Nc2ccc(Cl)cc2)c1 (stereo not drawn)	4%	2.7%	21%	4%	-4%	-22%	3%	6%
CCn1nc(NS(=O)(=O)c2ccc([N+](=O)[O-])cc2)c2cc3ccccc3nc21	-1%	.	29%[46.1 µM]	-3%	4%	12%	?	.
COc1cccc(-c2csc(N3CCN(CC(=O)NNC(=O)c4ccc(Br)cc4)CC3)n2)c1	-1%	1.3%	-14%	21%	.	7%	16%	?
COCC(=O)Nc1ccc(C(C)C)cc1	-6%	2.7%	1%	7%	.	0%	9%	-6%
C1=C(c2ccccc2)CCNC1	1%	.	?	5%	-7%	-3%	?	.
O=C(Nc1ccc(NS(=O)(=O)c2ccccc2)cc1)c1ccccc1Cl	-1%	.	-30%	.	8%	-11%	-12%	.
COc1ccc(CNCc2ccc3c(c2)OCO3)cc1Br	-1%	.	.	3%	-7%	-15%	.	.
COc1cc(CC2C(=O)Nc3ccccc32)cc(C)c1O (stereo not drawn)	3%	.	?	5%	-6%	-4%	-26%[46.1 µM]	.
O=C(c1ccccc1)c1ccc2nc(-c3ccc(NC(=O)c4ccccc4Br)cc3)[nH]c2c1	4%	-2.8%	-29%	-35%	-17%	6%	14%	3%
COc1cccc(C(=O)n2nc(-c3cccnc3)nc2NCc2ccc(F)cc2)c1	.	-6.4%	9%[46.1 µM]	.	-3%	.	-6%[46.1 µM]	4%
O=C(/C=C/c1ccco1)Nc1ccc2c(c1)OCO2	-2%	.	?	.	5%	5%	?	.
O=C(CCSc1nc2ccccc2o1)N1CCOCC1	-29%	-2.1%	18%	-55%	33%[activator]	-15%	?	4%
NC1=NC[C@H](Cc2ccccc2)N1CCc1cccc(F)c1	8%	.	.	-1%	-22%	-4%	.	.
COc1cc(CN(C(=S)NCC(=O)NC2CCCC2)C2CCCC2)cc(OC)c1OC	12%	-2.3%	1%	-3%	-7%	17%	-4%	?
CC(C)CC(=O)N1CCN(S(=O)(=O)c2ccc3ccccc3c2)CC1	3%	-2.0%	-26%	-3%	?	-5%	-20%	10%
COCCOC(=O)C1=C(C)NC2=C(C(=O)CC(C)(C)C2)C1c1ccc(N(C)C)cc1 (stereo not drawn)	-2%	1.7%	1%	2%	.	9%	-5%	9%
COCCN(C(=O)COC(=O)Cc1ccccc1)c1c(N)n(Cc2ccccc2)c(=O)[nH]c1=O	0%	.	-4%	.	0%	5%	-5%	.
CC1Cc2ccccc2N1C(=O)c1cnc2n(c1=O)CCS2 (stereo not drawn)	5%	-1.9%	.	1%	?	11%	.	-10%
Cc1ccc(CNC(=O)CCn2c(=O)oc3ccccc32)cc1	-2%	.	.	-8%	-19%	6%	.	.
O=C(Nc1cccc(Cl)c1)N(CCN1CCOCC1)Cc1cccc(Cl)c1	-29%	-1.8%	10%	-145%	.	-2%	-11%	-12%
SMILES	SARS PLP yeast	Cruzain inh Det	LASV entry inh	NS1 function inh	StopGo reporter	RE007 growth inh	Marburg entry inh	Cruzain inh noDet
Cc1ccc[n+](CC(=O)c2ccc(Cl)cc2)c1	5%	.	?	8%	-5%	-11%	5%	.
CCCCCC1CCC(c2ccc(C(N)=O)cc2)CC1 (stereo not drawn)	-2%	1.3%	-4%	4%	18%	1%	?	-28%
CCCSc1ncc(Cl)c(C(=O)N(Cc2ccc(N(C)C)cc2)C2CCS(=O)(=O)C2)n1 (stereo not drawn)	.	0.6%	-27%[46.1 µM]	.	-9%	.	4%[46.1 µM]	16%
O=C1C=C(Nc2cccc3cccnc23)c2ccccc2C1=O	-5%	.	0%[46.1 µM]	7%	28µM*	-22%	?	.
CCOC(=O)CNc1nc(Cl)nc(Nc2ccc(OC)cc2OC)n1	-1%	.	.	3%	0%	-3%	.	.
COC(=O)C(NC(C)=O)(Nc1cccc(C)n1)C(F)(F)F (stereo not drawn)	0%	.	-18%[46.1 µM]	3%	1%	6%	5%[46.1 µM]	.
O=C(Nc1ccnn1C1CCN(C2CCC2)CC1)c1cccc(F)c1	-1%	.	.	-8%	-8%	3%	.	.
O=S(=O)(c1ccc(Cl)cc1)N(Cc1ccccn1)Cc1ccccn1	1%	.	10%	-6%	-10%	-2%	-13%	.
O=C(OCC(=O)C12CC3CC(CC(C3)C1)C2)c1cnccn1	-1%	.	0%	-17%	-22%	17%	17%	.
O=C(O)C1Sc2[nH]c(=O)sc2C2c3cc(Cl)ccc3OC(=O)C12 (stereo not drawn)	-1%	-3.5%	?	11%	20%	-10%	4%	-17%
CCOC(=O)C(=O)Nc1sc(C(=O)N2CCOCC2)c(C)c1C#N	-1%	.	-28%	0%	-9%	10%	6%[46.1 µM]	.
CCOc1ccc2oc(C(=O)OCC(=O)NCC3CCCO3)c(C)c2c1 (stereo not drawn)	-1%	.	11µM*	.	0%	0%	5%	.
Cc1cccc(NC(=O)c2cc(-c3ccco3)nc3ccccc23)n1	1%	-6.4%	6%	-1%	-28%	-10%	0%	-4%
CN(C)CCCNC(=O)COc1ccc(Br)cc1Cl	13%	-0.9%	-16%	-1%	-2%	-1%	?	-17%
O=C(O)C1CCCCC1C(=O)Nc1ccccc1Nc1ccccc1 (stereo not drawn)	-6%	-1.5%	18%	-1%	-13%	1%	-3%[46.1 µM]	-12%
C=Cc1ccc(Cn2c(C)c(CNCc3ccccc3C)c(C(=O)O)c2C)cc1	.	2.9%	-2%[46.1 µM]	.	20%	.	?	8%
